# VDR inh = inhibitors of human vitamin D receptor; P11473; VDR-SRC2-3 peptide fluorescence polarization, 2 h; Potency, µM, inactives show max response, negative = inhibition, hits mostly inhibitors; 0.93% of 400,000 active; AID 504847; active = well fitted inhibition curve with a large enough effect; inconclusive = small, poorly fitted or top-dose-only effect, or another doubt; inactive = no such curve, though single readings can be large or run the other way; also: series mostly up to about 120 µM
# Target sequence (P11473 whole entry, looked up): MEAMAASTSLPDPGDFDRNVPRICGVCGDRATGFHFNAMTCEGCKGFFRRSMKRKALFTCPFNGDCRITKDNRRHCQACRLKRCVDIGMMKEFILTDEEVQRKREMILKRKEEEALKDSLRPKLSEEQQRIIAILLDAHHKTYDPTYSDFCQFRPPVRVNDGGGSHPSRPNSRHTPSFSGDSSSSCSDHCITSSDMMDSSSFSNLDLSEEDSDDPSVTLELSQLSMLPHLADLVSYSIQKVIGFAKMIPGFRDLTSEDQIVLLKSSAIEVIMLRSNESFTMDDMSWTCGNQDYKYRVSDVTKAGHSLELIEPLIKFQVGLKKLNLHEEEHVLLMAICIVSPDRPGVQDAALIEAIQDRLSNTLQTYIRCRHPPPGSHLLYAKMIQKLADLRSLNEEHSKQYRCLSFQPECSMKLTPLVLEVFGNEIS
#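 Signal is fluorescence polarization, reporting how far test compounds block the interaction of VDR with the SRC2-3 coregulator peptide after a 2 h room-temperature incubation.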
# An asterisk follows results filed as active; ? = inconclusive; & = joins results of further samples; [ ] = remark or other dose. % is scaled to controls: 0 for no effect and ±100 for the full control effect; potency is read from the fitted curve at half-maximal effect. Only part of the results is shown; the hit share may differ from the screen's.
VDR inh	SMILES
-5%	CC1CCCC(NC(=O)COC(=O)CCc2ccccc2)C1C (configuration not stated)
-13%	c1ccc2c(c1)nc(NCc1ccc3c(c1)OCO3)n2CCN1CCOCC1
-7%	O=C(NC1CCN(Cc2ccccc2)CC1)c1cccc(S(=O)(=O)Nc2ccc(SC(F)F)cc2)c1
7%	Cc1cnc(C(=O)OCC(=O)N2c3ccccc3NC(=O)C2(C)C)cn1
?	CC(=NCCc1ccccc1)C1=C(O)CSC1=O
5%	CS(=O)(=O)N(CC(=O)NCc1ccccc1Cl)c1cccc([N+](=O)[O-])c1
-3%	COc1cccc(OC)c1C(=O)N1CCN(c2c(Cc3ccccc3)c(C)nc3ncnn23)CC1
-9%	Cc1nc(-c2ccc(S(=O)(=O)Nc3cccc(S(N)(=O)=O)c3)s2)cs1
-11%	Cc1ccccc1OCCC(=O)OCC(=O)Nc1ccc2[nH]c(=O)[nH]c2c1
11%	CN1c2cc(Cl)ccc2-c2nc(SCC(=O)Nc3ccc(F)cc3F)ncc2S1(=O)=O
7%	O=C(NC1CC1)C1CCN(C(=O)c2ccccc2Cl)CC1
56%[activator]	Nc1nnc(CCc2ccccc2)s1
5%	O=[N+]([O-])c1ccc2c(c1)ncn2-c1ccccc1
3%	C=CCN1C(=O)CSc2ccc(C(=O)NC3CCCCC3)cc21
8%	COc1cc(NC(=O)Nc2c[nH]c(=O)[nH]c2=O)cc(OC)c1OC
6%	CCC(C(=O)Nc1cccnc1Cl)c1ccccc1 (configuration not stated)
6%	CCN(CC)c1ccc(NC(=O)CCNC(=O)c2ccco2)cc1
5%	O=C(COC(=O)c1ccc([N+](=O)[O-])s1)Nc1ccc(Cl)cn1
-2%	O=C(c1cc2cc(Br)ccc2oc1=O)N1CCN(c2ccccn2)CC1
11%	COC(=O)[C@@H]1C[C@@]2(O)[C@@H](O)[C@@H](O)[C@@H](O)C[C@H]2N1Cc1ccc(-c2ccccc2)cc1
-8%	Cc1nccn1-c1ccc(C=O)cc1
-1%	C=CCn1c(C)cc(C(=O)CSc2nc3ccccc3[nH]2)c1C
?	N#Cc1cnc(Sc2ccccc2)nc1
-12%	Cc1ccccc1NC(=O)CN1CCN(C)CC1
-2%	O=C(CCNC(=O)c1ccccc1)NNC(=O)COc1ccccc1Cl
8%	Cc1ccc(C(=O)C(C)OC(=O)CCN2C(=O)C3C4C=CC(C5CC45)C3C2=O)cc1 (configuration not stated)
-16%&-10%	O=S(=O)(c1ccc(F)cc1)N1CCN(c2nc(-c3cccs3)nc3ccccc23)CC1
-25%	NS(=O)(=O)c1ccc(N=Nc2c(O)c(C(=O)O)cc3ccccc23)cc1
11%	COc1ccccc1Nc1nnc(SCC(=O)Nc2cc(C)on2)s1
0%&9%	Cn1nc(C(=O)NCc2cccc(Cl)c2)c2c1-c1ccccc1S(=O)(=O)C2

# Reprinted from the part before: five entries, then new ones.
VDR inh	SMILES
8%	Cc1ccc(C(=O)C(C)OC(=O)CCN2C(=O)C3C4C=CC(C5CC45)C3C2=O)cc1 (configuration not stated)
-16%&-10%	O=S(=O)(c1ccc(F)cc1)N1CCN(c2nc(-c3cccs3)nc3ccccc23)CC1
-25%	NS(=O)(=O)c1ccc(N=Nc2c(O)c(C(=O)O)cc3ccccc23)cc1
11%	COc1ccccc1Nc1nnc(SCC(=O)Nc2cc(C)on2)s1
0%&9%	Cn1nc(C(=O)NCc2cccc(Cl)c2)c2c1-c1ccccc1S(=O)(=O)C2
14%	Cc1cccc(NC(=O)C2CC(=O)N(c3ccccc3)C2)c1C (configuration not stated)
0%	CSc1nc(C)cc(OCNC(=O)c2cccs2)n1
9%	Cc1cc(C)c2c(CN3CCN(Cc4ccc5c(c4)OCO5)CC3)cc(=O)oc2c1C
-5%	O=C(CCN1C(=O)c2ccc(Br)cc2C1=O)NC1CCCCC1
-17%	CCc1[nH]c(=S)c(C#N)c(-c2ccccc2)c1C(=O)OC
-9%	O=C(NC(=S)N1CCCCC1CO)c1cc(Br)ccc1Cl (configuration not stated)
7%	CCc1ccc(NC(=O)c2ccc(F)c(S(=O)(=O)NCCc3ccc(OC)c(OC)c3)c2)cc1
13%	COc1cccc(C(c2sc3nc(-c4ccco4)nn3c2O)N2CCOCC2)c1 (configuration not stated)
8%	COc1ccc(Cn2ccnc2SCC(=O)Nc2ccccc2)cc1
-14%	CSc1nc(-c2ccc(Cl)cc2)c(C#N)c(=O)[nH]1
-11%	COc1cc(C(=O)NCC(=O)Nc2ccc(F)c(F)c2)ccc1OCC(=O)N1CCOCC1
-16%	C/C(=N\NC(=O)c1cc(C2CC2)nc2ccccc12)c1ccc(O)cc1O
-4%	CCC(C)[C@H](NC(=O)NC1CCCc2ccccc21)C(=O)OC (some centres not stated)
7%	OC1(c2ccccc2F)CCN(Cc2nnnn2CCc2ccccc2)CC1
22%	Clc1cc(Br)ccc1NCc1cccnc1
11%	Cc1cccc(OCC(=O)Nc2nonc2-c2ccc(Br)cc2)c1C
-9%	Cc1cc(C)nc(SCC(=O)Oc2ccc3oc(=O)cc(C)c3c2)n1
-5%	O=C(CSc1nnc(-c2cccnc2)n1-c1ccc(F)cc1)NCc1ccc2c(c1)OCO2
-5%	O=C1CC(N(Cc2ccc3c(c2)OCO3)C(=O)Nc2ccc(F)cc2)C(=O)N1c1ccccc1 (configuration not stated)
-5%	COC(=O)c1cccc(NC(=O)c2cnoc2C)c1
-3%	O=C(O)c1ccc(OCC2CCCO2)cc1 (configuration not stated)
11%	Cc1ccc(Cl)cc1-n1ncc2c(Nc3ccc4c(c3)OCCO4)ncnc21
2%	Nc1nc(=S)c2ncn([C@H]3O[C@@H](CO)[C@@H](O)[C@@H]3O)c2[nH]1
-20%	COC(=O)Nc1ccc(Cc2ccncc2)cc1
-29%	COc1cc(SC)ccc1C(=O)Nc1nc(C)cs1
-4%	Cc1ccc(NC(=O)Cn2nnc3sc4c(c3c2=O)CCC(C)C4)cc1 (configuration not stated)
7%	CCC1(c2ccc(F)cc2)NC(=O)NC1=O (configuration not stated)
2%	COCCN1CC(O)=C(c2nc3ccccc3c(=O)[nH]2)C1=N
-7%	CC(=O)c1ccc(OCCn2cnc3ccccc32)cc1
-2%	COc1cc(-c2noc(C)c2C#CC2(O)CCCCC2)cc(OC)c1OC
-19%	CN(CCO)c1nc(N)c2c(N)nc3c(c2c1C#N)CC(=O)N3Cc1cccs1
6%	CCn1nc(C(=O)Nc2nc3ccc(C)cc3s2)c2ccccc2c1=O
-17%	CC1CCN(S(=O)(=O)c2cn(CC(=O)N3CCN(c4cccc(C(F)(F)F)c4)CC3)cn2)CC1
-8%	COc1cc(CNCCNCC(C)O)ccc1OCc1ccc(Cl)nc1 (configuration not stated)
9%	CCN(CC)C(=O)C1CCCN(C/C=C/c2ccccc2)C1 (configuration not stated)
7%	COc1ccc(C(=O)NC2CC2)cc1OC1CCN(Cc2cc(C)cc(C)c2)CC1
-10%	COc1ccc(C2c3cc4c(cc3OC(N3CCOCC3)C2C)OCO4)c(OC)c1 (configuration not stated)
7%	CC(=O)Nc1ccc(S(=O)(=O)Nc2ncccn2)cc1
?	CC1(OC(=O)c2cccs2)C(=O)C=C2C=C(c3ccc(C#N)cc3)OC=C2C1=O (configuration not stated)
-4%	Cc1ccc(NS(=O)(=O)c2cc(C(=O)NCc3ccncc3)ccc2C)cc1
-5%	CCOc1ccc(N(CC)C(=O)C2CCN(S(=O)(=O)c3cccc4nonc34)CC2)cc1
18%	Cc1nc(N2CCCC2)ncc1C(=O)Nc1ccc(F)cc1F
19%	Cc1ccc(NC(=O)CSc2nnc(-c3cc4occc4n3C)n2-c2ccccc2C)c(Cl)c1
7%	C=CCCC(=O)N(C)CCO
?	Cc1cc(OC(C)C(=O)N(Cc2ccco2)C2CCS(=O)(=O)C2)ccc1Cl (configuration not stated)
-13%	CCc1ccccc1NC(=O)CSC1=C(C#N)C(c2ccc(O)c(OC)c2)C2=C(CCCC2=O)N1 (configuration not stated)
10%	Cc1ccc2c(CC(=O)NNC(=O)c3ccccc3)coc2c1
-10%	Cc1nn(CC(=O)N2CCN(C)CC2)c(=O)c2c1sc1ccccc12
16%	NS(=O)(=O)c1ccc(CCNC(=O)c2ccc3c(=O)n4c(nc3c2)CCCCC4)cc1
2%	COc1ccc2[nH]c3c(c2c1)CN(C)CC3
16%	Cc1[nH]c(=O)[nH]c(=O)c1NS(=O)(=O)c1ccc2c(c1)CCCC2
-5%	COCCn1nnnc1C(c1cccs1)N1CCN2CCCC2C1 (configuration not stated)
1%	CCCCc1ccc(NC(=O)c2cnccn2)cc1
6%	COc1ccc(CN2CCNC(=O)C2CC(=O)N(C)Cc2ccon2)cc1OC (configuration not stated)
-19%	O=C(O)c1ccc(S(=O)(=O)NCC2CCCCC2)cc1
?	C=CCn1ncc(OC)c(Cl)c1=O
6%	O=C(OCCN1C(=O)c2ccccc2C1=O)c1ccccc1
8%	COc1ccc(NC(=O)CCC(=O)Nc2ccc3nc(N4CCOCC4)cc(C)c3c2)c(OC)c1
-16%	OCCNc1nc(Cl)nc(NCc2ccco2)n1
7%	Cc1nc(N2CCOCC2)c2c(C(=O)N3CCN(c4cccc(C(F)(F)F)c4)CC3)c(C)oc2n1

# Next part, overlapping the part above by 3 compounds.
VDR inh	SMILES
8%	COc1ccc(NC(=O)CCC(=O)Nc2ccc3nc(N4CCOCC4)cc(C)c3c2)c(OC)c1
-16%	OCCNc1nc(Cl)nc(NCc2ccco2)n1
7%	Cc1nc(N2CCOCC2)c2c(C(=O)N3CCN(c4cccc(C(F)(F)F)c4)CC3)c(C)oc2n1
6%	O=C(COc1cc2oc(=O)c3c(c2cc1Cl)CCC3)N1C[C@H]2C[C@@H](C1)c1cccc(=O)n1C2
7%	CCOc1ncccc1C(=O)Nc1c(C)n(C)n(-c2ccccc2)c1=O
-9%	CCOC(=O)c1c(C)oc2ccc(OCC(N)=O)cc12
8%	COc1cc(C(=O)OCC(=O)Nc2ccc(C(C)=O)cc2)ccc1OCC(=O)N1CCOCC1
28%	Cc1cc(/C=N/NC(=O)c2cccc(N(C)C)c2)c(C)n1-c1cc(C(=O)O)cc(C(=O)O)c1
11%&-2%	O=[N+]([O-])c1cccc2cn[nH]c12
5%	Cc1ccccc1C(=O)N1CCC(c2nc(-c3ccc(S(=O)(=O)N4CCCC4)cc3)no2)CC1
-16%	Cc1cc2c(cc1C)CSC(c1ccccc1O)SC2
-2%	O=S(=O)(Cc1ccccc1)N1CCN(Cc2c(F)cccc2Cl)CC1
-7%	COc1cc(Br)c(/C=C/c2ccc3cccc(O)c3n2)cc1OC
-8%	CC1=NN(C(N)=S)C(=O)C1N=Nc1c(C)n(C)n(-c2ccccc2)c1=O (configuration not stated)
-14%	O=C(c1ccc(-c2ccccc2)cc1)C1CCCN(C(=O)Cn2cncn2)C1 (configuration not stated)
-8%	COc1ccc(S(=O)(=O)N2CCc3ccccc32)cc1C(=O)N(CC(C)C)C1CCS(=O)(=O)C1 (configuration not stated)
-12%	COc1cc2c(cc1OC)C(c1cccc(Br)c1)NC(=O)C2 (configuration not stated)
3%	CCC(C(=O)NCCN1CCOCC1)n1c2ccccc2c2nc(=O)cc(C)n21 (configuration not stated)
12%	CCCNC(=O)Nc1cc(C(=O)NCc2cccc(OCC)c2)ccc1N1CCCC1
4%	O=C(Nc1ccccn1)c1cccc(S(=O)(=O)N2CCc3ccccc3C2)c1
-11%	COc1cccc(Nc2nc3ccccc3nc2NS(=O)(=O)c2cccs2)c1
-10%	CCNC(=O)COC(=O)COc1ccc(Cl)cc1C
-8%	Cn1nc(C(F)(F)F)c(C(=O)Nc2ccc(F)cc2)c1Cl
-16%	O=c1cc(CN2CCN(Cc3ccccc3)CC2)c2cc(O)ccc2o1
0%	Cc1ccccc1N(CC(=O)NCC1CCCO1)C(=O)CCC(=O)Nc1nccs1 (configuration not stated)
-10%	Cc1cccc(C)c1OCc1nnc(SCC(=O)NCCc2ccccc2)o1
-8%	O=C(Cn1c(=O)ccc2cc(S(=O)(=O)N3CCCC3)ccc21)Nc1ccccc1
-23%	CNc1nc(N)c([N+](=O)[O-])c(NC2CCCCC2)n1
-7%	Cc1noc(C)c1S(=O)(=O)N1CCCC(C(=O)NCCc2ccc(Cl)cc2)C1 (configuration not stated)
-9%	COc1cccc(CNc2ccc([N+](=O)[O-])c(NCC(=O)O)n2)c1
-20%	COC(=O)c1sccc1NC(=O)CC1C(=O)NCCN1C(=O)Nc1cc(Cl)ccc1OC (configuration not stated)
-14%	CN1CCc2c(sc3c2c(=O)n(-c2ccccc2)c2nnc(SCc4ccc(Cl)cc4)n32)C1
-8%	O=C(O)c1cc(S(=O)(=O)N(Cc2ccccc2)c2ccccc2)ccc1Cl

# Ordered by the number under VDR inh (descending): 4 from the list above
VDR inh	SMILES
-2%	O=S(=O)(Cc1ccccc1)N1CCN(Cc2c(F)cccc2Cl)CC1
-4%	Cc1ccc(NS(=O)(=O)c2cc(C(=O)NCc3ccncc3)ccc2C)cc1
-8%	Cc1nccn1-c1ccc(C=O)cc1
-29%	COc1cc(SC)ccc1C(=O)Nc1nc(C)cs1

# More records.
VDR inh	SMILES
3%	COCCNC(=O)CCCn1c(SCC(=O)Nc2ccc(F)cc2)nc2c(sc3ccccc32)c1=O
1%	O=S(=O)(NCc1ccccc1Br)c1ccccc1Br
10%	CCC(C)(C)NC(=O)CN(C(=O)c1snc(C(N)=O)c1N)c1ccc(OC)c(OC)c1
9%	COc1ccccc1NC(=O)CSc1nnc(CNC(=O)COc2ccc(Cl)cc2)o1
0%	O=c1oc(-c2ccc(Cl)c(Cl)c2)nn1-c1ccc(C(F)(F)F)cn1
4%	Cc1cc(NC(=O)C(C)(C)C)cc(-c2nc3ncccc3o2)c1O
-8%	COc1ccc(N(CC(=O)N2CCc3ccccc3C2)S(C)(=O)=O)cc1
4%	CC(C)CNC(=O)C1=CC(c2ccc3c(c2)OCO3)=NS(=O)(=O)N1C
-1%	O=C(CSc1nc2nccnc2c(=O)n1CCc1c[nH]c2ccccc12)Nc1ccccc1F
14%	CC(C)c1nnc(SCC(=O)NCc2ccc3c(c2)OCO3)n1C

# From PubChem BioAssay
